gsp antag: qHTS for Antagonists of gsp, the Etiologic Mutation Responsible for Fibrous Dysplasia/McCune-Albright Syndrome: qHTS | 340,000 compounds, 0.4% hits | gsp-mutant cells, cAMP HTRF, 30 min; control for the full effect not named in the record | Potency, µM (highest dose often 76.9 µM), for the others: top-dose activity change, negative = inhibition, actives largely listed as inhibitors; active = falling curve of any shape with a large fitted effect; inconclusive = falling curve, mostly with a smaller effect; inactive = flat or rising curve; cell line not stated here;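 further: intracellular cAMP measured with PDE inhibitor Ro 20-1724 present during compound exposure; potency means the concentration at half of the fitted maximal effect; on the % scale 0 is the no-effect control and ±100 the full control effect; nearly all actives have a fitted effect of over 65% in size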
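HTRF cAMP measurement after 30 min RT detection following 30 min, 37C compound treatment alongside […] (added as 300 uM solution) in G418-selected cells seeded at 2000/well and grown 16–24 h.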
D2 PAM: Beta-Arrestin HTS for Positive Allosteric Modulators of the Human D2 Dopamine Receptor: Potentiators | potentiation, % (no concentration beside the values) | 360,000 compounds, 0.23% hits | D(2) dopamine receptor (Homo sapiens), P14416 | DiscoveRx D2 beta-arrestin cells, luminescence, 90 min; 100% = 57 uM dopamine signal; active = potentiation of 50% or more; inconclusive = 30% to 50%; inactive = 30% or less;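 further: compound concentration not given in the record; tested on top of an EC20 dose of dopamine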
Target sequence (P14416 whole entry, looked up): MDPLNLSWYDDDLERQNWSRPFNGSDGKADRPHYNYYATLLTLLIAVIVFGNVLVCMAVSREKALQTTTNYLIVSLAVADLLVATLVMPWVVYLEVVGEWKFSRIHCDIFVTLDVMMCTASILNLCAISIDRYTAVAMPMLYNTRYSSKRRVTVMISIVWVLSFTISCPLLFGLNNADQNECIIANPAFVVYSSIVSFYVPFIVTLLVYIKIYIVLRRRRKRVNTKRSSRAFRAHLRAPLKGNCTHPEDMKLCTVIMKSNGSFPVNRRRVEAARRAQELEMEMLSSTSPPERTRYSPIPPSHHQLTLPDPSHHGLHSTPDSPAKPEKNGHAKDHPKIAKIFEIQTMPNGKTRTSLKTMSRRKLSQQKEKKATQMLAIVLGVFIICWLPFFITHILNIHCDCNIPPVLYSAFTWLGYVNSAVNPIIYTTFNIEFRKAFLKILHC
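PathHunter D2 cells, attached overnight at 37 deg C, received compound in DMSO plus dopamine at EC20 (50 nM final) for 90 min at 37 deg C. Beta-arrestin recruitment was read as luminescence after 1 h with detection reagent at ambient temperature.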
Six1-Eya2 blk: qHTS Assay for Inhibitors of the Six1/Eya2 Interaction; AID 651725, 2012; 360,000 compounds, 0.56% hits; Homeobox protein SIX1 (Homo sapiens) + Protein phosphatase EYA2 (Homo sapiens), …; activity change, % (test concentration not listed); AlphaScreen GST-Six1/His-Eya2 binding, biochemical; stronger effect = lower value; control for the full effect not named in the record; in the data active = activity change below about -65%; inconclusive = about -30% to -65%; inactive = above about -30%; further: on the % scale 0 is the no-effect control and ±100 the full control effect
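Six1/Eya2 binding was read as AlphaScreen signal after compounds were pinned into GST-Six1 plus His-tagged Eya2 (5X stock 250/500 nM) in pH 8.0 Tris/NaCl/TCEP buffer, beads added, then incubated 1 h, 37 C, dark.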
gsp ag: qHTS for Agonist of gsp, the Etiologic Mutation Responsible for Fibrous Dysplasia/McCune-Albright Syndrome: qHTS. AID 624287, 2012. 340,000 compounds, 0.13% hits. gsp mutant cells, cAMP HTRF, 30 min; control for the full effect not named in the record. Potency, µM (top dose mostly 76.9 µM), inactives show at the top dose activation (cAMP increase), actives largely listed as activators; active = well fitted activation curve with a large enough effect; inconclusive = small, poorly fitted or top-dose-only effect, or another doubt; inactive = no such curve, though single readings can be large or run the other way; cell line not stated here;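 further: phosphodiesterase inhibitor Ro 20-1724 added with compounds to block cAMP breakdown; potency means the concentration at half of the fitted maximal effect; nearly all actives have a fitted effect of over 60% in size; about a fifth of the inactives were tested at one dose only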
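Cells in DMEM/10% FBS with G418 were pretreated with compounds in DMSO plus […] (300 uM stock) for 30 min at 37C. cAMP was measured by HTRF (cAMP-d2 plus anti-cAMP antibody-K) after 30 min at room temperature.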
CtBP-E1A inh: qHTS Assay for Inhibitors of the CtBP/E1A Interaction; AlphaScreen GST-E1A/His-CtBP binding, 1536-well; stronger effect = lower value; control for the full effect not named in the record; activity change, % (test concentration not listed); 340,000 compounds, 0.49% hits; in the data active means activity change below about -65%; inconclusive means about -30% to -65%; inactive means above about -30%; further: on the % scale 0 is the no-effect control and ±100 the full control effect
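Homogeneous bead-based format: GST-tagged E1A captured on glutathione donor beads, His-tagged CtBP on nickel acceptor beads; compounds precede bead addition by 2 h at 37 °C.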
D2 agonist: Beta-Arrestin HTS for Positive Allosteric Modulators of the Human D2 Dopamine Receptor: Agonists; DiscoveRx PathHunter D2 beta-arrestin, luminescence, 90 min; 100% = 57 uM dopamine signal; 360,000 compounds, 0.084% hits; activation, % (concentration not given with the values); D(2) dopamine receptor (Homo sapiens), P14416; AID 624465, 2012; in the data active = activation above about 40%; inconclusive = about 15% to 40%; inactive = below about 15%; further: the text of the record calls up to 30% inactive
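DiscoveRx PathHunter D2 beta-arrestin cells (2,100/well) attached overnight, then compound-stimulated 90 min at 37 C in HBSS/10 mM HEPES/0.1% Tween-20 buffer; beta-galactosidase complementation read by luminescence after 1 h at ambient temperature. Dopamine 57 uM final (EC100) as control.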
An asterisk follows results filed as active; ? = inconclusive; . = no result given; [ ] = remark or other dose.

item	canonical_smiles	gsp antag	D2 PAM	Six1-Eya2 blk	gsp ag	CtBP-E1A inh	D2 agonist
1	CCC(=O)N1CCN=C1SCc1ccc(F)cc1	5%	-1	2	-2%	5	1.6
2	COc1cccc(-c2cc(C(=O)NCC3CCCO3)c3cc(C)cc(C)c3n2)c1 (configuration not stated)	-12%	-1	4	?	9	-2.7
3	COC(=O)C(C)Oc1ccc2c(-c3cccc([N+](=O)[O-])c3)cc(=O)oc2c1 (configuration not stated)	-2%	-9	3	10%	-2	-2.9
4	COc1cc(S(=O)(=O)Nc2cccc(C(=O)O)c2)c(OC)cc1Cl	1%	2	2	-2%	4	-0.1
5	Cc1ccccc1Cn1ccc(=NCc2ccccc2)cc1	17%	-1	-1	9%[15.4 µM]	1	0.5
6	CCCN1C(=O)c2ccc(C(=O)Nc3cc(C)ccc3O)cc2C1=O	2%	-18	2	-4%[15.4 µM]	2	4.0
7	Cc1ccc(-n2c(SCC(=O)Nc3ccc4c(c3)OCCO4)nnc2-c2ccco2)cc1	-20%	5	-11	-5%	-5	0.0
8	Cc1csc(=Nc2cccnc2)n1Cc1ccco1	8%	0	-22	-71%[15.4 µM]	?	-11
9	O=C1[C@@H]2CSCN2C(=O)CN1CCc1cccc(F)c1	9%	-8	10	-43%[inhibitor]	-6	0.5
10	CC(C)C(NC(=O)CSc1ccc(Cl)cc1)C(C)C	-4%	-10	8	3%	9	0.7
11	Nc1cccc(N=[N+]([O-])c2cccc(N)c2)c1	0%	-6	-8	-5%	-1	-2.5
12	CCCCN(CC)C(=O)C1CCC(=O)N(c2ccc(OC)cc2)C1c1ccc(OC)c(OC)c1 (configuration not stated)	-3%	-6	6	-6%	9	-2.8
13	CCOC(=O)N1CCN(c2c(-c3ccc(C)cc3)c(=O)c2=O)CC1	-27%	11	8	?	-5	0.5
14	COc1ccc(-c2cc(C(F)(F)F)n3nc(C(=O)NCc4ccco4)cc3n2)cc1OC	-1%	15	?	-25%	?	-2.0
15	Cc1ccc2cc(C(c3nnnn3C3CCCC3)N(Cc3cccnc3)Cc3ccco3)c(=O)[nH]c2c1 (configuration not stated)	-14%	-7	0	-50%[inhibitor]	48	-3.1
16	Fc1ccc(-c2cc(C(F)(F)F)nc(-n3cncn3)n2)cc1	1%	-17	-2	14%	-5	-1.4
17	CC(=O)N(CCC(c1ccco1)C(C)C)Cc1ccc(OC(C)C)cc1 (configuration not stated)	-9%	-4	-3	-17%	-2	-2.3
18	CCc1nnc(NC(=O)CSc2nccn2-c2cccc(C)c2C)s1	-8%	4	2	-74%[inhibitor]	0	-2.6
19	COc1ccc2cc(C(=O)N3CCN(c4cccc(C)c4C)CC3)[nH]c2c1	-6%	-3	1	10%	1	0.8
20	O=C(/C=C/c1ccccc1)Oc1coc(CSc2ncccn2)cc1=O	9%	4	?	-6%	-92*	1.6
21	COCCNC(=O)c1onc(CSc2ccc(F)c(F)c2)c1C(=O)O	4%	-7	5	24%	5	-1.0
22	COC(=O)CN1C(=S)N(c2ccc(Cl)cc2)C(=O)C1CC(=O)Nc1ccccc1 (configuration not stated)	-14%	-9	-4	-20%	3	-3.0
23	NC(=O)C1(N2CCCCC2)CCN(C(=O)CSc2nc3ccccc3o2)CC1	4%	-2	-3	1%	-4	2.9
24	CCCn1c(Nc2ccccc2)nc2ccccc21	11%	-31	-13	-48%[inhibitor]	4	-6.4
25	CCCNC(=O)c1cc(C2CCCCN2S(=O)(=O)c2cccc3cccnc23)on1 (configuration not stated)	.	0	6	.	-2	-4.8
26	Cc1cc(OCC(=O)N2CCN(c3ccccc3)CC2)c2c(C)c(C)c(=O)oc2c1	1%	4	44	14%	36	2.3
27	CCC(=O)Nc1ccc2c(c1)C(=O)c1ccccc1C2=O	1%	-14	?	-2%	?	-6.3
28	Cc1cccc(-c2nsc(SCC(=O)Nc3nccs3)n2)c1	3%	9	2	16%	9	-3.7
29	COc1ccc(NC(=S)N2CCC(c3ccccc3)C2)cc1 (configuration not stated)	10%	0	-3	-9%	5	1.9
30	Cc1sc(NC(=S)NC(=O)c2ccccc2)c(C#N)c1C	-5%	-5	-1	16%	-15	-5.1

Of the compounds above, these contain an NH in an aromatic ring:
item	canonical_smiles	gsp antag	D2 PAM	Six1-Eya2 blk	gsp ag	CtBP-E1A inh	D2 agonist
15	Cc1ccc2cc(C(c3nnnn3C3CCCC3)N(Cc3cccnc3)Cc3ccco3)c(=O)[nH]c2c1 (configuration not stated)	-14%	-7	0	-50%[inhibitor]	48	-3.1
19	COc1ccc2cc(C(=O)N3CCN(c4cccc(C)c4C)CC3)[nH]c2c1	-6%	-3	1	10%	1	0.8

Nos. 7 to 12, reprinted for reference:
item	canonical_smiles	gsp antag	D2 PAM	Six1-Eya2 blk	gsp ag	CtBP-E1A inh	D2 agonist
7	Cc1ccc(-n2c(SCC(=O)Nc3ccc4c(c3)OCCO4)nnc2-c2ccco2)cc1	-20%	5	-11	-5%	-5	0.0
8	Cc1csc(=Nc2cccnc2)n1Cc1ccco1	8%	0	-22	-71%[15.4 µM]	?	-11
9	O=C1[C@@H]2CSCN2C(=O)CN1CCc1cccc(F)c1	9%	-8	10	-43%[inhibitor]	-6	0.5
10	CC(C)C(NC(=O)CSc1ccc(Cl)cc1)C(C)C	-4%	-10	8	3%	9	0.7
11	Nc1cccc(N=[N+]([O-])c2cccc(N)c2)c1	0%	-6	-8	-5%	-1	-2.5
12	CCCCN(CC)C(=O)C1CCC(=O)N(c2ccc(OC)cc2)C1c1ccc(OC)c(OC)c1 (configuration not stated)	-3%	-6	6	-6%	9	-2.8

Quoted at random: 2 entries already listed.
item	canonical_smiles	gsp antag	D2 PAM	Six1-Eya2 blk	gsp ag	CtBP-E1A inh	D2 agonist
5	Cc1ccccc1Cn1ccc(=NCc2ccccc2)cc1	17%	-1	-1	9%[15.4 µM]	1	0.5
2	COc1cccc(-c2cc(C(=O)NCC3CCCO3)c3cc(C)cc(C)c3n2)c1 (configuration not stated)	-12%	-1	4	?	9	-2.7

New compounds follow:
item	canonical_smiles	gsp antag	D2 PAM	Six1-Eya2 blk	gsp ag	CtBP-E1A inh	D2 agonist
31	O=C(CSc1ccc(F)cc1)N1CCC(c2nc3ccccc3s2)CC1	-27%	-3	0	-3%	3	-0.9
32	CC(C)CCNC(=O)C(=O)NCCC1=CCCCC1	-6%	18	3	-2%	-5	-2.3
33	COc1ccc2[nH]c3c(c2c1)CCN1C(=O)N([C@@H](C)C(=O)NCCc2ccc(OC)c(OC)c2)C(=O)[C@]31C	-20%	-29	-12	.	-26	-2.7
34	Cc1cccc(C(=O)NC(=S)N(C)C2CCCCC2)c1	10%	-15	-11	-55%[inhibitor]	-6	-7.5
35	COc1ccc(S(=O)(=O)N2CCC(C(=O)N3CCN(c4ccccc4OC)CC3)CC2)cc1	4%	-8	0	?	1	0.7
36	CCCCOc1ccc(/C=C/C(=O)Nc2ccc([N+](=O)[O-])cc2C)cc1	20%	-18	-8	0%	1	-2.9
37	CC(C)OC(=O)CSc1nc(C(C)C)nc2ccccc12	8%	-1	-1	-73%[inhibitor]	.	-2.8
38	CCc1ccc(/C(C)=N/NC(=O)CNC(=O)/C=C/c2ccccc2OC)cc1	-8%	-5	2	22%	-15	-0.9
39	Cc1ccc2nc(C)c3c(c2c1)OC(C(C)(Cl)Br)C3 (configuration not stated)	-16%	-8	-5	-18%[15.4 µM]	5	-2.6
40	CCOC(=O)C1CCN(S(=O)(=O)Cc2ccc(Cl)cc2)CC1	-19%	-4	6	-3%	5	0.7
41	CCC(NC(=O)c1ccc(C#CC2(O)CCCCC2)cc1)C(=O)O (configuration not stated)	7%	-2	-2	15%[15.4 µM]	.	5.8
42	Cc1ccsc1CNCC(O)c1ccccc1 (configuration not stated)	6%	-3	-9	19%	0	-5.3
43	Cn1c(=O)c2c(nc(Br)n2CCSc2nnnn2-c2ccccc2)n(C)c1=O	-14%	1	-1	-134%[inhibitor]	11	-2.3
44	CCOc1ccccc1C(=O)Nc1ccccc1O	-2%	-18	-7	5%	-1	-4.1
45	CCCCCO	-1%	-5	8	.	-19	-2.8
46	O=C(NC1CC1)c1ccc(F)cc1Cl	8%	-16	10	5%	-2	-1.0
47	CCCCN1CNC(=S)N(Cc2ccccc2)C1	9%	1	10	-35%[inhibitor]	-13	2.1
48	Cn1cc(SCC(=O)NCc2ccc3c(c2)OCO3)c2ccccc21	-15%	-3	-6	-47%[inhibitor]	1	-4.6
49	Cc1onc(-c2ccccc2)c1C(=O)Nc1cccc2nsnc12	21%	-5	10	35µM*	11	-2.0
50	CC(C)NC(=O)C1(C)CCCN1Cc1csc2ccccc12 (configuration not stated)	.	-6	3	.	5	-4.6
51	COCCNS(=O)(=O)c1cc(C(=O)O)ccc1OC	-10%	-6	9	-5%[15.4 µM]	3	-0.6
52	CN1/C(=C\C(=O)c2ccco2)C(C)(C)c2ccccc21	35µM*	-14	4	-9%	14	3.8
53	O=c1c(Cl)c2oc3ccccc3nc-2c2ccccc12	-19%	0	-25	11%	-26	3.7
54	CCCCc1ccc(/C=C(\C#N)C(N)=S)s1	-2%	-19	-7	4%[15.4 µM]	0	-8.9
55	Cc1ccc(C(=O)Nc2c(N)nc(SCC(=O)NCC3CCCO3)[nH]c2=O)cc1 (configuration not stated)	5%	-16	4	4%	-6	6.9
56	S=c1[nH]nc([C@@H]2C[C@H]2c2ccccc2)n1-c1ccccc1Cl	-9%	-25	-2	-5%	.	-6.9
57	O=[N+]([O-])c1ccc(Cl)cc1N1CCCCC1	-2%	-4	-18	?	0	0.9
58	CCc1ccccc1NC(=S)N1CCNC(=O)C1CC(=O)OC (configuration not stated)	15%	-8	6	-1%[15.4 µM]	3	-6.4

Records listed so far marked active in CtBP-E1A inh.
nr	structure	D2 PAM	Six1-Eya2 blk	gsp ag	CtBP-E1A inh	D2 agonist
20	O=C(/C=C/c1ccccc1)Oc1coc(CSc2ncccn2)cc1=O	4	?	-6%	-92*	1.6
